# PKD1 inh – PKD1 (human) kinase inhibition; hit rate 0.056% among 200,000; inhibition, %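 (about 10 µM by stock and volumes)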; Q15139; PKD1 kinase fluorescence polarization assay;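 active = inhibition of 50% or more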;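 also: controls were vehicle for no effect and a reference inhibitor for full effect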
# Target sequence (Q15139 whole entry, looked up): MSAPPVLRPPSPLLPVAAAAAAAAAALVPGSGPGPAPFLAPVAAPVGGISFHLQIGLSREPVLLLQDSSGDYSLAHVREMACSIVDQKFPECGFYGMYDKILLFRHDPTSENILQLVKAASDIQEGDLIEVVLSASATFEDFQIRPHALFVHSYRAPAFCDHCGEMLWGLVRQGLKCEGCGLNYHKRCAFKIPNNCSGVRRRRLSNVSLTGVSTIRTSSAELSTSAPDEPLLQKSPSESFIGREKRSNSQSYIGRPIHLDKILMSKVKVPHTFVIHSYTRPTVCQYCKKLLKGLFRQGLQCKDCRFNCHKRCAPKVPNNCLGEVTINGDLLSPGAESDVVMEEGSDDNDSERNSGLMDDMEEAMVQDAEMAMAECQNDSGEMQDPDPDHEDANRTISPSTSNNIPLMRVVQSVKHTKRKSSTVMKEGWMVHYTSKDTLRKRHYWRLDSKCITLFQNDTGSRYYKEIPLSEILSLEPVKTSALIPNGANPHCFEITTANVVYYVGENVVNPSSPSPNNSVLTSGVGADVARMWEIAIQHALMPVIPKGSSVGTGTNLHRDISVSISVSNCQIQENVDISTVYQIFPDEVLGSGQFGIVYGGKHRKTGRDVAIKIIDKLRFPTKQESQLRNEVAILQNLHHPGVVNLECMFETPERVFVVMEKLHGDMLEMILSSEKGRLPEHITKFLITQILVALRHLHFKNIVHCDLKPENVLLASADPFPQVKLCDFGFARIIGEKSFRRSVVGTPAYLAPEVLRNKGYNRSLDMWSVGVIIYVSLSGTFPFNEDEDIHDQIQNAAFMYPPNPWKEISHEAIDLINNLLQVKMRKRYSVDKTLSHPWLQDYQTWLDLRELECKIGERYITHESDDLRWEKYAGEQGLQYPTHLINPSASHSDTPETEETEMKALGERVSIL
# INS promoter inh – TRM-6 insulin promoter activity inhibition; inhibition, % at 2 µM; hit rate 0.9% among 130,000; TRM-6 cells (human fetal islet line), insulin promoter-eGFP reporter, imaging; reporter expression induced with tamoxifen;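 active = inhibition above the mean plus 3 SD, with well images judged a real hit on visual review, cut at about 60% in these data, passing the limit was not always enough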
# GALR2 agonist – GALR2 (human) receptor agonism. O43603. GALR2-expressing cells, agonist activation read-out. activation, %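 (tested at 5 µM)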. hit rate 0.48% among 140,000. AID 803;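 active = above mean plus 3 SD of all compounds, about 5% in these data, not always enough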;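 also: 0% = vehicle buffer wells and 100% = reference agonist at full effect; tested in CHO reporter cells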
# RGS16-Gao HTS – RGS16-Galphao interaction regulator (human); O15492+P09471; bead-based flow cytometry RGS16-Galphao binding, fluorescence; actives lie on both sides; binding response (% of control), % at 10 µM; AID 1441; hit rate 0.38% among 220,000;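 active = below 25% or above 175%, edge rows of some plates excepted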;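 also: Galphao activated by GDP with aluminum fluoride before binding; 100% = wells without compound and 0% = beads without RGS; some results beyond the cut were filed as inactive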
# HSV augment – HSV replication enhancement; HSV replication augmentation in cells, fold increase; maximum fold increase; hit rate 0.005% among 220,000; AID 1956;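 active = peak rise of 1.5-fold or more in the series; tested in PC3 cells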;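 also: first round at 10 µM; read as green reporter fluorescence; hits show the peak of a series up to 25 µM; 1 = signal of infected wells without compound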
# INS promoter inh cell count – recorded beside INS promoter inh, whose call it bears; normalized cell count, %; measured here: cell count, toxicity; reference of the scale not given here;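 cells exposed to compound for 48 h; stained nuclei by imaging scaled within each plate; lower means fewer cells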
# HSV augment primary fold – also measured in HSV augment; calls as there; fold increase; compound at 10 µM; measured here: primary screen fold increase 10 uM; tested in PC3 cells;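 GFP signal in the first replicate; 1 = infected wells without compound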
# The depositor's hits bear a star; i = inactive; . = not tested or not shown. This is a random part of the collection; 1.3% or so of the library scored in one or more.
SMILES,PKD1 inh,INS promoter inh,INS promoter inh cell count,GALR2 agonist,RGS16-Gao HTS,HSV augment,HSV augment primary fold
CSS(=O)(=O)c1cccc2cccnc12,.,.,.,.,87,i,1.1
CN(C)CC(C)(C)CNS(=O)(=O)c1ccc(Cl)cc1,-8,-9,136,.,103,i,0.84
COc1cc(C(=O)OCC#N)ccc1OCc1c(C)noc1C,.,.,.,.,100,i,0.79
CCOCCCNC(=O)c1ccc2c(=O)n(Cc3ccc(OC)cc3)c(=O)[nH]c2c1,1,13,94,.,104,i,0.9
Cc1cc(Oc2ccc(Cl)cc2)nc(-c2ccccc2O)n1,-12,62,46,-2.2,28,i,1
O=C(NC1CCCCC1)C(=S)NCCc1ccccc1,7,.,.,.,95,i,1
Cc1cccc(NC(=O)Nc2cccc(Oc3c(F)c(F)c(F)c(F)c3F)c2)c1,-4,18,112,-1.8,101,i,0.87
CCOc1ccccc1OCCOCCOc1c(Cl)cccc1Cl,-7,38,116,-0.3,113,i,1.1
CSC1=NC(C)(C)C=C(/C=C/c2ccc(Cl)cc2)N1,-2,.,.,.,97,i,1
O=C(CSc1nnnn1-c1cccc2c1CCCC2)N1CCCCC1,0,-206,74,-0.3,85,i,1.1

# Three of the entries above in order of their number in GALR2 agonist, rising.
Compound | GALR2 agonist
Cc1cc(Oc2ccc(Cl)cc2)nc(-c2ccccc2O)n1 | -2.2
Cc1cccc(NC(=O)Nc2cccc(Oc3c(F)c(F)c(F)c(F)c3F)c2)c1 | -1.8
O=C(CSc1nnnn1-c1cccc2c1CCCC2)N1CCCCC1 | -0.3

# (more compounds)
SMILES,PKD1 inh,INS promoter inh,INS promoter inh cell count,GALR2 agonist,RGS16-Gao HTS,HSV augment,HSV augment primary fold
COc1ccc(NC(=S)N(CCc2c(C)[nH]c3ccc(C)cc23)Cc2cccnc2)cc1,-9,5,100,-0.3,.,.,.
CCOC(=O)c1c(C)[nH]c(C)c1C(=O)CSc1nc2ccccc2c(=O)n1-c1ccc(C)cc1,-6,-87,60,1.0,97,i,0.85
CCN(CC)CCn1c(O)c(N=O)c2ccccc21,-5,.,.,-2.5,124,i,0.99
O=C(NCC(c1cccnc1)N1CCN(c2ccc(F)cc2)CC1)OCc1ccccc1 (stereo not given),-11,21,109,-1.1,99,i,0.93
COc1ccc(C(=O)OCC2CC(c3ccccc3)=NO2)cc1OC (stereo not given),-6,26,126,.,103,i,1
Cc1ccc(SC[C@H](Cc2ccccc2)N2CCN(CCc3ccccc3)CCC2=O)cc1,.,.,.,.,95,i,0.8
CCOC(=O)C(=CNc1cc(C)ccn1)C(=O)OCC,6,-11,119,0.1,99,i,0.95
O=C(NC1CCCC1)c1csc2c1CCCC2,6,.,.,-0.9,108,i,0.96
N#CCc1nn(-c2ccccc2)c(N)c1C#N,11,-4,108,-1.1,94,i,0.99
COc1ccccc1-c1nnc(SCC(=O)Nc2ccccc2)o1,-7,32,41,-1.4,100,i,1
CCOc1nc(C)nc(NC(=O)NS(=O)(=O)c2ccccc2Cl)n1,-13,10,122,-3.8,100,.,.
CC(C)n1c(-c2ccccc2)nc(=S)c2c1CCCC2,-9,-29,88,-1.1,99,i,0.97
Cc1ccc2nc(COc3ccc(N(C)S(=O)(=O)c4ccccc4)cc3)cc(=O)n2c1,1,.,.,.,93,i,0.87
Cc1cccc(NCc2nc3ccccc3n2C)c1,-1,-26,88,-2.6,96,i,1
Cc1ccc(CNC(=O)Cc2ccc(-n3cccc3)cc2)cc1,-5,13,115,0.3,99,i,0.69
COC(=O)c1c(C)[nH]c(C)c1C(C)=O,.,.,.,.,105,i,0.8
COCCCn1cc(C(=O)c2cc(Br)ccc2O)cc(C#N)c1=O,7,35,118,.,88,i,1
CCCC1Cc2nc(N3CCCCC3)c(C#N)cc2CO1 (stereo not given),10,31,121,-1.9,99,i,0.75
CCC(=O)Nc1c2c(nn1-c1cccc(Cl)c1)CSC2,1,20,111,-0.7,102,.,.
Cc1nc(-c2nc(-c3c(C(=O)NN)noc3C)cs2)cs1,-5,.,.,.,99,i,0.76

# 7 compounds from above, limited to RGS16-Gao HTS and INS promoter inh cell count.
SMILES,RGS16-Gao HTS,INS promoter inh cell count
Cc1ccc2nc(COc3ccc(N(C)S(=O)(=O)c4ccccc4)cc3)cc(=O)n2c1,93,.
Cc1cccc(NCc2nc3ccccc3n2C)c1,96,88
Cc1ccc(CNC(=O)Cc2ccc(-n3cccc3)cc2)cc1,99,115
COC(=O)c1c(C)[nH]c(C)c1C(C)=O,105,.
COCCCn1cc(C(=O)c2cc(Br)ccc2O)cc(C#N)c1=O,88,118
CCCC1Cc2nc(N3CCCCC3)c(C#N)cc2CO1 (stereo not given),99,121
CCC(=O)Nc1c2c(nn1-c1cccc(Cl)c1)CSC2,102,111

# The results go on.
SMILES,PKD1 inh,INS promoter inh,INS promoter inh cell count,GALR2 agonist,RGS16-Gao HTS,HSV augment,HSV augment primary fold
Cc1nc(SCc2cccc(Oc3ccccc3)c2)n[nH]1,-1,31,144,-1.1,104,i,0.81
Cn1c(C(=O)OC(C(=O)NC(C)(C)C)c2cccnc2)cc2sccc21 (stereo not given),4,.,.,.,108,i,1.1
CCOC(=O)c1cnn(-c2ncnc3sc4c(c23)CCC4)c1N,4,.,.,0.6,125,i,0.84
O=C(Cn1cnc2cc([N+](=O)[O-])ccc2c1=O)Nc1ccc2c(c1)CCC2,1,-28,131,-2.6,114,i,0.97
Cc1ccc(-c2cc(-c3ccccc3)nc(N/N=C/c3cccnc3)n2)cc1,13,-3,103,-2.8,.,i,1.1
CCOC(=O)C1CCN(C(=O)c2cccc(S(=O)(=O)Nc3ccc(C)cc3C)c2)CC1,-7,.,.,.,101,i,0.98
COc1ccc2[nH]c3c(NCCC4=CCCCC4)ncnc3c2c1,0,65*,133*,.,93,i,0.75
CCc1ccc(C2=NN(c3ccc(S(N)(=O)=O)cc3)C(c3ccc(F)cc3)C2)cc1 (stereo not given),-5,22,98,39*,57,i,0.91
Cc1cccc(C)c1NC(=S)N=Nc1c(O)n(C)c2ccc(S(=O)(=O)N3CCOCC3)cc12,1,i,40,-2.1,104,i,0.83
O=C(NNc1cc(Cl)ccc1Cl)c1cccnc1Cl,-2,.,.,.,90,i,0.99
Cc1cccc(C(=O)NCc2nnc(SCc3ccc(F)cc3)n2C)c1,-5,.,.,.,118,i,1.1
Cc1ccc(C(=O)NCc2ccc3c(c2)OCO3)cc1S(=O)(=O)N1CCCCC1,-5,-61,74,-0.3,102,i,1
COc1cc(S(=O)(=O)NCc2ccncc2)c(OC)cc1Cl,-8,-114,116,.,103,i,0.91
COc1cc(/C=N/NC(=O)C2COc3ccccc3O2)cc(OC)c1OC (stereo not given),-7,14,93,-1.1,102,i,0.88
CCCCNC(=O)Cc1ccc(Br)cc1,-3,.,.,.,105,i,0.94
O=C(c1cn(-c2ccccc2)nc1-c1ccc(F)cc1)N1CCCCC1,-8,-49,122,0.0,110,i,0.84
Fc1ccc(CSc2nnc(-c3cnccn3)n2Cc2ccco2)cc1,5,12,98,-1.8,89,i,0.68
CCCCCC(=O)Nc1ccc(S(=O)(=O)Nc2nccc(C)n2)cc1,-9,45,63,.,102,i,1
Cc1nnsc1-c1nnc(SCC(=O)c2ccc(C#N)cc2)n1C1CC1,.,.,.,.,115,i,1.1
Oc1ccc(/C=N/Nc2ncnc3c2ncn3Cc2ccccc2)cc1O,8,10,87,-0.3,64,i,0.86
CCOC(=O)/C(C#N)=C/c1cccn1-c1ccc(Cl)cc1,.,.,.,.,104,i,1
CCOC(=O)c1c2c(n(C)c1C)C(=O)C(=O)c1ccc(Br)cc1-2,-5,5,113,-1.2,.,i,0.59
CCN(Cc1ccccc1)C(=O)C(C)OC(=O)c1cc(S(=O)(=O)Nc2c(C)n(C)n(-c3ccccc3)c2=O)ccc1C (stereo not given),0,-107,109,.,104,i,0.98
CCn1cnc2cc(NCc3cccc(OC)c3O)ccc21,-6,36,126,-2.5,96,i,0.97
COC(=O)c1ccc(Oc2ccc3nnc(C)n3n2)cc1,-7,.,.,-1.7,389,i,0.83
COc1ccc(-c2ccc(SCC(=O)c3ccc(F)cc3)nn2)cc1OC,16,.,.,.,99,i,0.98
CCc1nc(SCC(=O)Nc2ccc(OC)cc2[N+](=O)[O-])n[nH]1,.,.,.,.,100,i,0.89
COc1ccc(S(=O)(=O)NC2CCCCC2)cc1C,-8,18,139,-1.1,100,i,0.89
O=C(CC(C(=O)O)C1CCCO1)Nc1cccc(C(F)(F)F)c1 (stereo not given),-2,-21,83,-0.9,98,i,0.95
COCCOC(=O)c1c(NC(=O)CN2CCOCC2)sc(C(N)=O)c1C,24,.,.,0.7,74,i,1.1
O=C(Cn1cc([N+](=O)[O-])cn1)N1CCc2ccccc21,-4,.,.,-0.8,98,i,0.99
CCC(=O)N(Cc1cc2ccc(C)cc2n2nnnc12)C1CCCCC1,10,-6,58,-0.6,.,i,0.99
Cn1ccnc1-c1nc2ccccc2[nH]c1=O,-9,.,.,-0.8,101,i,0.83
Cc1ccc(S(=O)(=O)N(CC(=O)N2CCN(c3ccc(F)cc3)CC2)C2CCCCC2)cc1,-3,-47,178,-0.7,103,i,0.94
O=C(COC(=O)CSCC(=O)N1CCCCC1)NCc1ccc(F)cc1,-6,6,110,-0.9,104,i,1
C=CCNC(=O)c1onc(CSc2ccccc2CC)c1C(=O)O,-1,22,38,-1.9,86,i,0.89
Cc1noc(C)c1S(=O)(=O)N1CCN(C(c2ccccc2)c2ccc(Cl)cc2)CC1 (stereo not given),-4,.,.,0.8,107,i,0.93
Cc1noc(NS(=O)(=O)c2ccc(NC(=O)CSc3nc4ccccc4[nH]3)cc2)c1C,-22,-15,60,-1.0,96,i,0.9
Clc1ccc(Nc2cc(-c3ccccc3)nc3ncnn23)cc1,.,.,.,.,78,i,0.96
COc1ccc(N2CCN(C3CC(=O)N(c4ccc5c(c4)OCCO5)C3=O)CC2)cc1 (stereo not given),-4,92*,78*,-1.7,102,i,1.2
O=C(/C=C/c1cccs1)N1CCCCC1,2,.,.,.,102,i,0.88
Cc1[nH][nH]c(=O)c1C(c1ccc(O)c([N+](=O)[O-])c1)c1c(C)[nH][nH]c1=O,-6,15,82,-0.3,111,i,1.1
S=C1NCCOCCNC(=S)NCCOCCOCCOCCN1,-2,-6,112,-0.8,88,i,0.96
Cc1cc(C)nc(SCNC(=O)c2ccc(Cl)cc2)n1,1,39,90,-1.2,102,i,0.76
CCCCCNC(=O)c1ccc2c(=O)n(CC3CCCO3)c(=O)[nH]c2c1 (stereo not given),-12,.,.,0.3,102,i,0.95
COc1ccc(NC(=O)c2ccc(C(=O)c3cc(OC)ccc3OC)cc2)cc1,-8,-10,106,-1.0,98,i,1
C#CCOCCOCCOCCNc1nc(N2CCN(C(=O)C([C@@H](C)CC)n3cc(C(N)CO)nn3)CC2)nc(N2CCN(C(=O)[C@H](CCC(=O)O)n3cc(C(N)CC(C)C)nn3)CC2)n1 (stereo not given in full),6,.,.,.,109,.,.
CCCNS(=O)(=O)c1ccc(C(=O)NCC2CCCO2)cc1 (stereo not given),1,-1,153,0.3,90,i,0.86
COc1ccc(-c2nc(-c3ccccc3)nc(N3CCN(C)CC3)c2C#N)cc1,-5,-12,145,-0.3,109,i,0.79
COc1ccccc1CNc1nc2ccccc2n1CCN1CCCCC1,-17,.,.,-0.9,102,i,0.97
# Further results follow:
SMILES,PKD1 inh,INS promoter inh,INS promoter inh cell count,GALR2 agonist,RGS16-Gao HTS,HSV augment,HSV augment primary fold
COc1cccc(C2NC(=O)NC(C)=C2C(=O)Nc2ccc(C)cc2)c1OC (stereo not given),-6,.,.,-2.0,97,i,0.95
COc1ccccc1/C=N/NC(=O)C(=O)NCc1cccnc1,-8,.,.,.,118,i,1.2
CCOC(=O)c1cc(-c2ccc(F)cc2)n(CC(=O)NC(C)CC)c1C (stereo not given),-5,-8,79,.,79,i,0.92
CC/C(=N\NC(=O)CCC(=O)NCc1ccccc1)c1ccc(O)cc1,-1,.,.,.,95,i,0.67
C/C(=C\c1ccccc1)C(=O)NCCc1ccccc1,2,.,.,.,100,i,0.97
CC(=O)N1CCc2cc(S(=O)(=O)NC(Cc3ccccc3)C(=O)NC3CCCCCC3)ccc21 (stereo not given),-7,-7,51,-3.0,105,i,0.71
CCCN(CCC)CCCOC(=O)c1ccc(Cl)cc1Cl,-2,-3,122,0.1,101,i,0.78
CCOc1ccc(-c2csc(NNC3=NCCCCC3)n2)cc1,-6,.,.,.,101,i,1
CCOc1ccc2oc(C(=O)NC(C)(C)CC)c(C)c2c1,0,-27,167,.,106,i,1
O=C(COc1nncc2ccccc12)Nc1ccc(F)c(F)c1,-5,7,171,.,96,.,.
